StopGo reporter: High Throughput Screening for Foot and Mouth Disease Virus Antivirals. human cells with a luciferase reporter of 2A StopGo recoding; control for the full effect not named in the record. Potency, µM (series often up to 57.9 µM), without a hit: at the highest dose signal change, negative = less light. hit rate 1.2% among 410,000. AID 1159524, 2015; active = well fitted falling curve with a large enough effect; inconclusive = small, poorly fitted or top-dose-only effect; inactive = no such curve, though single readings can be large or run the other way; tested in HEK293T cells; note: % is set by controls: 0 for no effect and ±100 for the full control effect; nearly all actives have a fitted effect of over 45% in size; luciferase light after 4 h
SARS PLpro yeast: qHTS of Yeast-based Assay for SARS-CoV PLP. AID 485353, 2010. S. cerevisiae expressing SARS-CoV PLpro, growth rescue; control for the full effect not named in the record. Potency, µM (highest dose often 32.9 µM), inactives show at the highest dose activity, positive = growth rescue. hit rate 0.19% among 330,000; active means well fitted rising curve with a large enough effect; inconclusive means small, poorly fitted or top-dose-only effect; inactive means no such curve, though single readings can be large or run the other way; note: 0% is about no effect; nearly all actives have a fitted effect of over 55% in size; growth read by luminescence after 48 h
RE007 growth inh: qHTS Assay for Inhibitors of the HIV-1 protein Vpr; hit rate 0.21% among 360,000; S. pombe RE007 Vpr strain, BacTiter-Glo ATP luminescence, 24 h; control for the full effect not named in the record; AID 651644, 2012; Potency, µM (series often up to 92.2 µM), for inactives: top-dose activity change, negative = less growth; active = well fitted falling curve with a large enough effect; inconclusive = small, poorly fitted or top-dose-only effect; inactive = no such curve, though single readings can be large or run the other way;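 note: % is set by controls: 0 for no effect and ±100 for the full control effect; nearly all actives have a fitted effect of over 50% in size; the assay follows cell death caused by Vpr and the record does not say whether a fall means rescue or toxicity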
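Fission yeast strain RE007, carrying one chromosomally integrated HIV-1 vpr copy, was seeded at OD 0.01 in PMG+AL medium with 23 nL pinned compound. After 24 h at 30 °C and 99% humidity, viability was read by BacTiter-Glo luminescence.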
Active calls of the source: *; ? = inconclusive; · = not tested or not shown; [ ] = another dose, or the depositor's remark. Potency is the fitted concentration of half-maximal effect. The list is partial; the hit share may differ from the screen's.

Each structure is followed by: SARS PLpro yeast	StopGo reporter	RE007 growth inh
O=C(CSc1nn(-c2ccc(Cl)cc2)c(=S)s1)NCC1CCCO1 (stereo not drawn)
 : 1%	7%	-5%
CCC(C)Sc1ccc([C@H]2N[C@@](C)(C(=O)OC)[C@H]3C(=O)N(CC)C(=O)[C@@H]23)cc1OC (stereo partly drawn)
 : 7%	12%	13%
COCCNc1nc(-c2cc(C)n(CCc3ccc(OC)cc3)c2C)cs1
 : 1%	?	-20%
CCN(C(=O)COC(=O)COc1ccccc1Cl)c1c(N)n(Cc2ccccc2)c(=O)[nH]c1=O
 : -5%[6.58 µM]	-15%	-25%
NC(=O)NC[C@@H]1CC[C@@H](Cc2ccc(-c3ccccc3)cc2)O1
 : 9%	11%	1%
COC(=O)[C@@]12CCCCN1[C@H](c1ccc(SC3CCCCC3)c(OC)c1)[C@@H]1C(=O)N(C)C(=O)[C@@H]12
 : 4%	-27%	2%
CCN(C(=O)CN1C(=O)NC2(CCc3ccccc32)C1=O)C1CCS(=O)(=O)C1 (stereo not drawn)
 : 1%	10%	-8%
Cc1ccc(Nc2nnc(SCC(=O)NCC3CCCO3)s2)cc1C (stereo not drawn)
 : -1%	22%	-11%
Cc1cccc(CNc2ccc(S(=O)(=O)N3CCCCC3)cc2)c1
 : -1%	?	10%
O=S(=O)(c1ccc2c(c1)CCCN2)N1CCCCC1
 : -5%	3%	-9%
Brc1ccc2nc(-c3c[nH]c4ccccc34)cn2c1
 : -6%	22%	-15%
O=C1Cc2cc(S(=O)(=O)Nc3cccc(F)c3)ccc2N1
 : -7%	12%	-29%
CCN(c1ccccc1)S(=O)(=O)c1ccc(Cl)c(NC(=O)CN2CCN(C)CC2)c1
 : 0%	2%	-1%
O=C(NCCOc1ccccc1Cl)c1ccc2c(c1)S(=O)(=O)c1cc(Cl)ccc1C2=O
 : -4%	-5%	-5%
Cc1ccc(S(=O)(=O)N2[C@@H](c3ccc(C(C)(C)C)cc3)C(C(=O)O)=CC[C@H]2c2ccc(Cl)cc2)cc1
 : -15%	?	14%
COC(=O)C1=C(c2ccc(-c3ccccc3)c(F)c2)C[C@@H]2CC[C@H]1N2C(=O)N1CCc2cc(OC)c(OC)cc2C1
 : 4%	?	4%
O=C(Nc1nnc(C2CC2)o1)c1ccc(S(=O)(=O)N2CCc3ccccc3C2)cc1
 : ?	3%	-18%
CCOC(=O)[C@H]1[C@H]2COc3ccc(OC)cc3[C@@H]2N2C(=O)c3ccc(Cl)cc3NC(=O)[C@@]12C
 : -2%	-23%	0%
COc1ccc(NC(=O)CCNS(=O)(=O)c2ccc3c(c2)c(=O)n(C)c(=O)n3C)cc1OC
 : 3%	-1%	2%
COc1cc(/C=C/C(=O)OCC(=O)NCCN2C(=O)CSC2=O)ccc1OCC#N
 : -1%	-8%	-4%
COc1ccc(/C=N/NC(=O)CN(c2ccc(OC)cc2)S(=O)(=O)c2ccccc2)cc1
 : 6%	2%	-4%
Cc1noc(C)c1S(=O)(=O)Nc1ccc2c(c1)C(=O)N([C@H](C)CO)C[C@H](C)[C@@H](CN(C)C(=O)NC1CCCCC1)O2
 : 3%	0%	4%
Cc1ncsc1CCOC(=O)c1ccc(N2CCOCC2)c([N+](=O)[O-])c1
 : -5%	-1%	·
Cc1ccsc1C(=O)NNC(=O)c1ccc(NS(=O)(=O)c2cccs2)cc1
 : -3%	-4%	9%
COc1cccc(CNC(=O)COC(=O)/C=C/c2ccc(SC)cc2)c1
 : 7%	-6%	-3%
O=C(c1cccc([N+](=O)[O-])c1)N1CCN(S(=O)(=O)/C=C/c2ccccc2)CC1
 : 12%	-4%	0%
O=[N+]([O-])[N-][n+]1cnn(Cc2ccc(Cl)cc2)c1
 : 13%	8%	14%
C[C@H](CO)N1C[C@H](C)[C@@H](CN(C)S(=O)(=O)c2cccs2)Oc2ccc(NC(=O)CCC(F)(F)F)cc2C1=O
 : 2%	-8%	18%
Cc1noc(C)c1S(=O)(=O)N(C)C[C@H]1Oc2c(NC(=O)Nc3ccc(C(F)(F)F)cc3)cccc2C(=O)N([C@H](C)CO)C[C@@H]1C
 : 1%	-16%	3%
COc1ccc2c(c1)C(=O)N1[C@H]3c4cc(Br)ccc4OC[C@@H]3[C@H](c3ccccc3)[C@]1(C)C(=O)N2
 : -7%	-21%	-4%
Cc1cc(OCC(=O)Nc2cccc(S(=O)(=O)N3CCCCC3)c2)ccc1Cl
 : -10%	-23%	5%
COc1cccc(N=C(N)N)c1
 : -3%	-1%	13%
Cc1cc(C)cc(NC(=S)NCCN(C2CCCCC2)C2CCCC2)c1
 : -1%	-23%	-24%
COc1cc(=O)oc(CCC(C)O)c1C (stereo not drawn)
 : -2%	-25%	3%
Cc1ccc(NC(=O)CSc2nnc(Cc3csc(C)n3)o2)cc1
 : 6%	19%	-13%
CC(C)CN(C(=O)CSc1nnc(C2CC2)n1-c1ccccc1)C1CCS(=O)(=O)C1 (stereo not drawn)
 : -1%	-2%	8%
CN1CCN(C(=O)c2cccc(S(=O)(=O)N3CCCC3)c2)CC1
 : -6%	-12%	6%
COc1cc(CC(=O)OCC(=O)c2c[nH]c3ccccc23)cc(OC)c1OC
 : 0%	-29%	6%
O=C(CCNC(=O)Cn1ccc2ccccc2c1=O)NCc1ccccn1
 : -4%	4%	5%
COCC(=O)OCC(=O)Nc1cc([N+](=O)[O-])ccc1Cl
 : -4%	9%	5%
COc1ccc([C@H]2CC(=O)C=C(c3ccc(OC)c(OC)c3)C2)cc1
 : -8%	-9%	-10%
O=C(COC(=O)c1ccco1)NCCc1ccc(Cl)cc1
 : 7%	2%	-2%
Cc1noc(C)c1NC(=O)N(C)C[C@H]1Oc2c(NC(=O)Nc3ccccc3)cccc2C(=O)N([C@H](C)CO)C[C@@H]1C
 : 1%	12%	7%
CC(Sc1nnc2ccccn12)C(=O)NCc1ccc2c(c1)OCO2 (stereo not drawn)
 : -2%	-1%	0%
N#Cc1ccc(OCC(=O)N2CCN(c3ccc(C(F)(F)F)cn3)CC2)cc1
 : 7%[6.58 µM]	-27%	-13%
COc1cccc(CN(C)CC(=O)Nc2sc3c(c2C#N)CCC3)c1OC
 : 1%	3%	-6%
O=C(NNC(=O)c1ccc(-c2ccc([N+](=O)[O-])cc2)o1)c1ccncc1
 : 6%	-2%	0%
CCOC(=O)[C@H]1[C@H]2COc3ccc(Cl)cc3[C@H]2N2C(=O)CNC(=O)[C@@]12C
 : 1%	-17%	4%
O=C(Nc1ccccc1C(=O)NCc1ccco1)Nc1cccc2ccccc12
 : 2%	-12%	6%
CCN(CC)c1ccc(C=Nc2ccc(OC)c(S(=O)(=O)N3CCOCC3)c2)c(O)c1
 : 1%	-10%	-11%
COc1ccc(OC)c(-c2csc(CCn3nc(C)cc3C)n2)c1
 : -1%	11%	-2%
CCCCNc1c(-c2ccc(SC3CCCCC3)c(OC)c2)nc2ccc(Cl)cn12
 : 1%	-26%	-6%
COc1ccc(-c2ccc(SCc3ccccn3)nn2)cc1OC
 : -5%	5%	-9%
C=CCn1c(=S)[nH]c2scc(-c3cccs3)c2c1=O
 : -1%	18%	9%
C#CCOCCOCCOCCNc1nc(N2CCN(C(=O)[C@H](CCC(=O)O)n3cc([C@@H](N)CCCCN)nn3)CC2)nc(N2CCN(C(=O)[C@H](CCC(=O)O)n3cc([C@@H](N)CCCCN)nn3)CC2)n1
 : 3%	-3%	10%
O=C(Nc1ccc2c(c1)CCC2)c1ccc(Cl)nc1
 : -3%	28%	-16%
O=C(CCN1CCOCC1)c1ccc(N2CCCCC2)cc1
 : 2%	3%	?
c1cc(SC2CCCCC2)cc(-c2nc3cnccn3c2NC2CCCCC2)c1
 : 2%	?	-8%
Cc1ccc(C(=O)N2CCCCC2)cc1NC1=C(Cl)C(=O)N(Cc2ccccc2)C1=O
 : -6%	?	2%
CCN(CC)S(=O)(=O)c1cc(NC(=O)CSc2n[nH]c(N)n2)ccc1C
 : 3%	3%	-3%

(cont.)
Each structure is followed by: SARS PLpro yeast	StopGo reporter	RE007 growth inh
CCOC(=O)[C@@H]1[C@H]2COc3cc(OC)ccc3[C@H]2N2C(=O)N(c3ccc(Cl)cc3)C(=O)[C@]12C
 : 0%	-4%	16%
Cc1ccc(NS(=O)(=O)c2ccc(C(=O)OCC(=O)N3CCCCC3)cc2)cc1
 : 0%	17%	7%
O=C(CNC(=O)c1ccc(Br)o1)NNC(=O)c1ccccc1O
 : ?	-13%	1%
CCCNC(=O)C(Cc1ccc(I)cc1)NC(=O)c1ccc(C#N)cc1 (stereo not drawn)
 : 4%	9%	9%
CCOc1ncccc1C(=O)OCC(=O)NC1CCCCC1
 : -5%	14%	-4%
O=C(O)CCCC(=O)Nc1ccc(N=Nc2ccccc2)cc1
 : 0%	29%	2%
C#CCOCCOCCOCCNc1nc(N2CCN(C(=O)CCCCCCCCCCNC(=O)Cn3cc(C[C@@H](C)O)nn3)CC2)nc(N2CCN(C(=O)CCCCCCCCCCNC(=O)[C@H](CO)n3cc(CCCSC)nn3)CC2)n1
 : 6%	-22%	19%
COCc1c(C(=O)OCC(=O)N(C)C2CCS(=O)(=O)C2)oc2ccccc12 (stereo not drawn)
 : -7%	-12%	-21%
O=C(Cc1ccc(F)cc1)N[C@@H]1c2ccccc2CC[C@@H]1O
 : 2%	-6%	-2%
COc1cc2ccccc2cc1C(=O)NC1CCCCC1
 : -12%	55%[activator]	-25%
N#Cc1ccccc1N1CCN(C(=O)c2ccc(NC(=O)c3ccc(Br)o3)cc2)CC1
 : 3%	-11%	2%
C[C@H]1CN([C@@H](C)CO)C(=O)c2cccc(NC(=O)C3CC3)c2O[C@H]1CN(C)C(=O)Nc1ccc2c(c1)OCO2
 : -4%	-3%	2%
CCC(=O)c1ccc(OCC(=O)N2CCN(CC(=O)Nc3ccc(C)cc3)CC2)cc1
 : -4%	-21%	10%
Cc1cc(C(=O)OCC(=O)N(C)c2ccccc2)c(C)o1
 : -1%	-14%	-14%
COc1ccc(-c2sc3ccc(OC)cc3c2C#Cc2ccccn2)cc1
 : 7%	-9%	-1%
COC(=O)N/N=C1/C/C(=N\NC(=O)OC)c2ccccc21
 : -1%	8%	2%
COc1cc(OC)cc(-c2c(C#Cc3ccsc3)c3cc(-c4cc(F)cc(F)c4)ccc3n2C)c1
 : -3%	-9%	1%
COC(=O)[C@@]1(Cc2ccccc2)[C@H]2C(=O)N(C)C(=O)[C@H]2[C@H]2CN=C(SC)N21
 : 8%	-6%	-16%
Cc1cc(C(=O)N(Cc2nnc(-c3ccc(Cl)cc3)o2)C(C)C)c2ccccc2n1
 : -1%	-11%	-13%
O=C(Cc1ccccc1Cl)Nc1cccc(S(=O)(=O)N2CCCCCC2)c1
 : 1%	-16%	-17%
Cc1c(CNCCc2ccc(Cl)cc2)c(C(=O)O)c(C)n1Cc1ccccc1
 : 20%	5%	-5%
CC(NC(=O)CN1C(=O)NC2(CCCCCC2)C1=O)c1ccccc1Cl (stereo not drawn)
 : 3%	0%	5%
O=C(NCC1CCCO1)c1cc2ccccc2nc1Cl (stereo not drawn)
 : -5%	15%	12%
COc1ccc(OC)c(COC(=O)c2cc([N+](=O)[O-])ccc2N2CCOCC2)c1
 : 17%	-14%	8%
O=c1cc(-c2ccc(O)cc2)oc2ccc3ccccc3c12
 : -8%	5.6µM*	-25%
COc1cc(OC)cc(C(=O)NCC(=O)OC2CCCCC2=O)c1 (stereo not drawn)
 : 0%	-22%	10%
COc1ccc(NC(=O)CN(C)CC(=O)NCc2ccc(C)cc2)cc1
 : 6%	-16%	-17%
C=CCC[C@@H](Cc1ccc(F)cc1)C(=O)OC[C@@H]1CCCN1C(=O)[C@@H](CC=C)CC(=O)N[C@@H](CO)Cc1ccccc1
 : -24%	-32%	8%
COc1ccc(NC(=O)N(C)C[C@H]2Oc3ccc(NC(=O)Nc4c(C)noc4C)cc3C(=O)N([C@H](C)CO)C[C@@H]2C)cc1
 : -2%	-14%	7%
CC(OC(=O)/C=C/c1ccccc1)C(=O)Nc1ccc2c(c1)OCCO2 (stereo not drawn)
 : -6%	8%	-13%
C[C@H](CO)N1C[C@H](C)[C@@H](CN(C)C(=O)NC2CCCCC2)Oc2c(NC(=O)Nc3ccc4c(c3)OCO4)cccc2C1=O
 : -3%	40%[activator]	3%

Three records picked at random from those above:
Each structure is followed by: SARS PLpro yeast	StopGo reporter	RE007 growth inh
CCOc1ncccc1C(=O)OCC(=O)NC1CCCCC1
 : -5%	14%	-4%
COC(=O)[C@@]1(Cc2ccccc2)[C@H]2C(=O)N(C)C(=O)[C@H]2[C@H]2CN=C(SC)N21
 : 8%	-6%	-16%
CCOC(=O)[C@@H]1[C@H]2COc3cc(OC)ccc3[C@H]2N2C(=O)N(c3ccc(Cl)cc3)C(=O)[C@]12C
 : 0%	-4%	16%
